EPAC1 ag val = validation of human EPAC1 agonists | EPAC1 Rap1b BODIPY-GDP exchange, fluorescence | O95398 | Potency, µM, without a hit: max response, positive = active, usual class: activators | 16,000 tested, 1% active; active = well fitted activation curve with a large enough effect; inconclusive = small, poorly fitted or top-dose-only effect; inactive = no such curve, though single readings can be large or run the other way;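 also: nearly all actives have a fitted effect of over 70% in size; series mostly up to about 76 or 150 µM; scaled to a cAMP control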
Target sequence (O95398 whole entry, looked up): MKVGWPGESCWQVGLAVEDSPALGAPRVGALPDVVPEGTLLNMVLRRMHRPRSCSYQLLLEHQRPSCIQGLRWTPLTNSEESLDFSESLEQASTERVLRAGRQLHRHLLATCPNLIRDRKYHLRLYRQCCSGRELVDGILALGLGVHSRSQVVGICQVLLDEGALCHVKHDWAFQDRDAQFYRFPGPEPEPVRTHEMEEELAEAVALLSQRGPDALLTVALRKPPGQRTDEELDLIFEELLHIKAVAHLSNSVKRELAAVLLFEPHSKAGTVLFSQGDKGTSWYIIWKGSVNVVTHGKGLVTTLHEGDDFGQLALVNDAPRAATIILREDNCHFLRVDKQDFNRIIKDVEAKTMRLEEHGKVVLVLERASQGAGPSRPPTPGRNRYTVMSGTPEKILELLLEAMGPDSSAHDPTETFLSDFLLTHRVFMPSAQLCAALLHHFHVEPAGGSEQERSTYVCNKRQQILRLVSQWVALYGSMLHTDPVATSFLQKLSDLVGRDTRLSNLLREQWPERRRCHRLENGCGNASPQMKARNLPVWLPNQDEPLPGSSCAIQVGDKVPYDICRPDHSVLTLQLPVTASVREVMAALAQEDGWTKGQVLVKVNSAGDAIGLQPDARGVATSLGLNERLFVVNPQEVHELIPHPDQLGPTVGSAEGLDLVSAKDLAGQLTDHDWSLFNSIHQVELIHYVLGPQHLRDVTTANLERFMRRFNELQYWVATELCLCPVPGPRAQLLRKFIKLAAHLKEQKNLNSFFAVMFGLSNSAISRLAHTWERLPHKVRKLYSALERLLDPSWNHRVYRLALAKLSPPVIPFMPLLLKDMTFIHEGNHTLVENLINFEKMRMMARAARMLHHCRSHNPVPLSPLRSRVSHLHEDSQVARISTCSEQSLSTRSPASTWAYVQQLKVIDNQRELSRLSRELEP
* marks the source's active call; other numbers are inactive results; & = joins results of further samples; [ ] = another dose, or the depositor's remark. % is scaled to controls: 0 for no effect and ±100 for the full control effect; potency is read from the fitted curve at half-maximal effect. Only part of the results is shown; count on the stated rates, not on these rows.

`C=C1C(=O)O[C@@H]2[C@H]3O[C@]3(C)CCC=C(C)CC[C@@H]12` gave EPAC1 ag val -7.6%&10.1%.
c1nc(NCCN2CCOCC2)c2cc(-c3ccoc3)ccc2n1 was read as EPAC1 ag val -29.9%.
For CCSC(=N)N the results were EPAC1 ag val -5.4%&26.1%&-0.4%.
Screening COCCn1c(=O)c(CCc2ccccc2)nc2cnc(N3CCOCC3)nc21 returned EPAC1 ag val inconclusive.
Screening COc1cccc(Nc2ncc3ncc(=O)n(C[C@H]4CCCO4)c3n2)c1 returned EPAC1 ag val 1.3%.
For Cc1ccc(C(C)C)cc2c(C)ccc1-2 the results were EPAC1 ag val -13.8%&-5.5%.
`CCCCCCCCCC(=O)N[C@H](CN1CCOCC1)[C@H](O)c1ccccc1` gave EPAC1 ag val -8.0%.
For COc1ccc(C(=O)C[n+]2cccc3cccc(O)c32)cc1 the results were EPAC1 ag val inconclusive.
Screening COc1ccc(Oc2ncc3nc(-c4ccc(F)cc4)c(=O)n(Cc4cccs4)c3n2)cc1 returned EPAC1 ag val 7.6%.
Screening CS(=O)(=O)c1ccc(-c2nc(-c3ccc(F)cc3)c(-c3ccncc3)[nH]2)cc1 returned EPAC1 ag val -9.5%.
COc1ccc(NC(=O)N2CCCC3(CCN(C(=O)c4cc(C(F)(F)F)cc(C(F)(F)F)c4)CC3)C2)cc1 was read as EPAC1 ag val -86.7%[inhibitor].
`Cc1cc(C(=O)Nc2cccc(-c3nc(CNC(=O)c4ccccc4C(F)(F)F)c(C)o3)c2)c(C)o1` gave EPAC1 ag val -2.1%.
For COc1c2c(cc3c1C(c1c(O)c4ccccc4oc1=O)N(C)CC3)OCO2 (stereo unspecified) the results were EPAC1 ag val 3.5%.
For Cc1cc2c(c(-c3cnccn3)c1)OC(CNC(=O)c1c(F)cccc1Cl)C2 (stereo unspecified) the results were EPAC1 ag val 1.2%.
For CC(C)NC(=O)N1CC[C@@]2(CCCN(S(C)(=O)=O)C2)C1 the results were EPAC1 ag val -60.9%[inhibitor].
Screening CC(=O)NCCNc1ncnc2ccc(-c3ccc(C(=O)N(C)C)cc3)cc12 returned EPAC1 ag val -4.2%.
Screening O=c1cc(-c2ccc(O)c(O)c2)oc2cc(O)cc(O)c12 returned EPAC1 ag val -41.1%&-10.5%[inhibitor].
For C[C@@H]1/C(=N/O)CC2C[C@@H]1C2(C)C the results were EPAC1 ag val -105.7%[inhibitor].
NC(C(=O)O)c1ccc(P(=O)(O)O)cc1 (stereo unspecified) was read as EPAC1 ag val -18.9%.
Screening CN1CCC2(CC1)CCN(S(=O)(=O)c1ccccc1)CC2 returned EPAC1 ag val 2.6%.

6 structures out of the list, sorted by count of non-hydrogen atoms, rising:
For C[C@@H]1/C(=N/O)CC2C[C@@H]1C2(C)C the results were EPAC1 ag val -105.7%[inhibitor].
Screening O=c1cc(-c2ccc(O)c(O)c2)oc2cc(O)cc(O)c12 returned EPAC1 ag val -41.1%&-10.5%[inhibitor].
For COc1ccc(C(=O)C[n+]2cccc3cccc(O)c32)cc1 the results were EPAC1 ag val inconclusive.
c1nc(NCCN2CCOCC2)c2cc(-c3ccoc3)ccc2n1 was read as EPAC1 ag val -29.9%.
Screening CS(=O)(=O)c1ccc(-c2nc(-c3ccc(F)cc3)c(-c3ccncc3)[nH]2)cc1 returned EPAC1 ag val -9.5%.
Screening COCCn1c(=O)c(CCc2ccccc2)nc2cnc(N3CCOCC3)nc21 returned EPAC1 ag val inconclusive.

The listing continues:
Screening CCCc1nc2cccnc2n1C1CCN(C(=O)Cn2nccc2C)CC1 returned EPAC1 ag val -8.1%.
Screening CC1=C(CC(=O)O)c2cc(F)ccc2/C1=C\c1ccc(S(C)=O)cc1 (stereo unspecified) returned EPAC1 ag val -14.1%&10.5%&14.5%&1.2%.
COC(=O)C1=C(C)NC(C)=C(C(=O)OC)C1c1ccccc1[N+](=O)[O-] was read as EPAC1 ag val -9.5%&-3.6%&-13.0%&-25.6%&5.8%.
`Cc1cnc(CNc2ncncc2-c2ccccc2C#N)cn1` gave EPAC1 ag val 9.3%.
CC1(C)S[C@@H]2[C@H](NC(=O)C3(N)CCCCC3)C(=O)N2[C@H]1C(=O)O was read as EPAC1 ag val 9.7%.
`CCCCCCCN(c1ccccc1)C1C[C@H]2CCCC(=O)N3CC[C@@H](C1)[C@@H]23` (stereo partly specified) gave EPAC1 ag val -21.5%.
Screening Cc1cc(O)c(C)c(O)c1C(=O)O returned EPAC1 ag val inconclusive.
For CCCCOC(=O)CC(CC(=O)OCCCC)(OC(C)=O)C(=O)OCCCC the results were EPAC1 ag val -55.4%[inhibitor].
For COc1ccc(Oc2ncc3nc(CCc4ccccc4)c(=O)n(C[C@H]4CCCO4)c3n2)cc1 the results were EPAC1 ag val -24.9%.
Screening COc1cc(=O)n2c(c1C(=O)N(C)Cc1nccs1)CCN(Cc1c(F)ccc(F)c1F)CC2 returned EPAC1 ag val -11.1%.
Screening CC(=O)SCC[N+](C)(C)C returned EPAC1 ag val 4.3%.
CC(=O)c1cc2c(cc1O)OC(C)(C)C=C2 was read as EPAC1 ag val 4.6%.
CNCC(O)c1cccc(O)c1 (stereo unspecified) was read as EPAC1 ag val 21.8%.
For O=[N+]([O-])c1cccc2[nH]cnc12 the results were EPAC1 ag val 26.5%.
Screening CCCCCCCCN1[C@@H](CC(=O)OC)c2cc(C(F)(F)F)ccc2S1(=O)=O returned EPAC1 ag val -35.9%[inhibitor].
Screening NC(=O)c1cc[n+](CC2=C(C(=O)O)N3C(=O)C(NC(=O)C(c4ccccc4)S(=O)(=O)[O-])C3SC2)cc1 (stereo unspecified) returned EPAC1 ag val 3.7%.
`COCCNc1ncncc1-c1ccccc1OC` gave EPAC1 ag val 16.0%.
For CCC(C)c1ccc(O[C@@H]2O[C@H](CO)[C@@H](O)[C@H](O)[C@H]2NC(C)=O)cc1 (stereo partly specified) the results were EPAC1 ag val -14.6%.
Screening COc1cccc2oc(-c3ccccc3)cc(=O)c12 returned EPAC1 ag val -3.4%.
Screening Cc1c(C(=O)NN2CCCCC2)nn(-c2ccc(Cl)cc2Cl)c1-c1ccc(Cl)cc1 returned EPAC1 ag val -7.4%.
O=C(O)COc1ccc(OCCNC[C@H](O)COc2ccccc2)cc1 was read as EPAC1 ag val -6.5%.
For COc1cc(C)c(CN2CCc3nnc(C(C)NC(=O)c4cccnc4)n3CC2)cc1C (stereo unspecified) the results were EPAC1 ag val 12.1%.
Screening COc1cccc(-c2cncnc2NCc2cccnc2)c1 returned EPAC1 ag val 16.6%.
For COC(=O)c1ccccc1NS(C)(=O)=O the results were EPAC1 ag val -33.8%[inhibitor].
For COC(=O)N[C@H](C(=O)N[C@@H](Cc1ccccc1)[C@@H](O)CN(Cc1ccc(-c2ccccn2)cc1)NC(=O)[C@@H](NC(=O)OC)C(C)(C)C)C(C)(C)C the results were EPAC1 ag val 15.9%.
`C[C@@H](CN=[N+]=[N-])CN1CC[C@H](NC(=O)OCc2ccccc2)CCC1=O` gave EPAC1 ag val 3.5%.
For CN(Cc1ccco1)c1cc(-c2ccoc2)ncn1 the results were EPAC1 ag val -14.3%.
COCc1nc2c([nH]1)c(=O)n(C)c(=O)n2CC(C)C was read as EPAC1 ag val -1.6%&-15.7%&-6.8%.
c1ccc(Nc2ncnc3ccc(-c4ccoc4)cc23)cc1 was read as EPAC1 ag val -19.1%.
For CN1CCN(c2ncc3nc(-c4ccccc4)c(=O)n(-c4ccccc4)c3n2)CC1 the results were EPAC1 ag val 22.0%.
`CC(=O)C[C@H]1c2cc(C(F)(F)F)ccc2S(=O)(=O)N1Cc1ccccc1` gave EPAC1 ag val 22.2%.
COc1ccccc1-c1nccc(NCc2cccs2)n1 was read as EPAC1 ag val -33.8%[inhibitor].
For COc1ccc(Cl)cc1C(=O)NCCc1ccc(S(=O)(=O)NC(=O)NC2CCCCC2)cc1 the results were EPAC1 ag val -6.1%&6.4%&-12.9%&-45.7%&3.9%.
Screening COc1cc(=O)n2c(c1C(=O)N(C)Cc1nonc1C)CCN(Cc1ccccc1F)CC2 returned EPAC1 ag val -7.4%.
For CCc1nc2cc(C(=O)N[C@H]3CCCCNC3=O)cc(NC(=O)c3ccccc3OC)c2n1C the results were EPAC1 ag val -17.9%.
For CC[C@@H]1[C@H]2CCCC(=O)N3CC[C@@H](C[C@H]1O)[C@@H]23 the results were EPAC1 ag val 22.6%.
Screening NC(N)=NC(N)=NCCc1ccccc1 returned EPAC1 ag val -12.4%&-8.5%.
`O=C(c1cccc(F)c1)N1CCC2(CCCN(C(c3ccccc3)c3ccccc3)C2)CC1` gave EPAC1 ag val -25.5%.
Screening COc1ccc(CNc2ncncc2-c2ccccc2CN(C)C)c(OC)c1 returned EPAC1 ag val -5.5%.
Screening O=C(c1cccc(F)c1)N1CCC2(CCCN(c3ncccn3)C2)CC1 returned EPAC1 ag val -1.4%.
`O=C(O)CCCC[C@@H]1SC[C@H]2NC(=O)N[C@@H]12` gave EPAC1 ag val -14.7%.
`CN(N=O)C(=O)N[C@H]1C(O)C(O)C(CO)O[C@@H]1O` (stereo partly specified) gave EPAC1 ag val -2.7%.
COc1ccccc1CN1CC[C@@]2(CCCN(S(=O)(=O)c3ccccc3)C2)C1 was read as EPAC1 ag val -38.1%[inhibitor].
`O=C(NCCN1CCOCC1)c1cnn(-c2nccc(-c3ccccc3F)n2)c1C1CC1` gave EPAC1 ag val 8.1%.
O=C(c1cc(C(F)(F)F)cc(C(F)(F)F)c1)N1CCC2(CCN(Cc3nccs3)CC2)CC1 was read as EPAC1 ag val -80.3%[inhibitor].
`CCCCCCCCCCCCCC[N+](C)(C)C` gave EPAC1 ag val -35.0%[inhibitor].
For Cc1cccc(CNc2cc(-c3ccccc3Cl)ncn2)c1 the results were EPAC1 ag val -6.0%.
Screening O=S1(=O)CCOC[C@H](CC2CCCCC2)N1Cc1cccc(C(F)(F)F)c1 returned EPAC1 ag val -116.0%[inhibitor].
Screening CN(C)c1ncc2nc(-c3ccccc3)c(=O)n(Cc3ccc(F)cc3)c2n1 returned EPAC1 ag val -19.7%.
COC(=O)CC1[C@@]2(C)C[C@]34OC5(C)OC6(C7CC(=O)OC(c8ccoc8)[C@]7(C)CCC6(O5)[C@]13C)C(OC(C)=O)[C@]4(OC(C)=O)C2OC(C)=O (stereo partly specified) was read as EPAC1 ag val -32.0%[inhibitor].
CN(C)c1ncc2nc(-c3cccs3)c(=O)n(CCC#N)c2n1 was read as EPAC1 ag val 100µM*.
For Cc1cc[n+](CCC2CCCCC2)cc1 the results were EPAC1 ag val 6.7%.
`COc1ccccc1CNc1cc(-c2c(C)noc2C)ncn1` gave EPAC1 ag val -56.5%[inhibitor].
Screening Cc1ncc(COP(=O)(O)O)c(C=O)c1O returned EPAC1 ag val -21.7%.
Screening CCn1c(-c2ccccc2F)nc2cc(C(=O)NC(c3ccccn3)C(F)(F)F)cc(NC(C)=O)c21 (stereo unspecified) returned EPAC1 ag val -1.8%.
`O=c1c(-c2cccc(F)c2)nc2cncnc2n1Cc1ccccc1` gave EPAC1 ag val inconclusive.
For c1ccc2sc(-c3cc4c(c(OC5CCOC5)c3)OCCN(Cc3cccn3-c3nccs3)C4)nc2c1 (stereo unspecified) the results were EPAC1 ag val 1.5%.
CCCCCCCCCCCCSCCOCCO was read as EPAC1 ag val -29.3%.
COc1ncc2ncc(=O)n(CCC#N)c2n1 was read as EPAC1 ag val -42.7%[inhibitor].
For O=C(Nc1ccccc1)[C@@H]1CC=C[C@@H]2CCN(Cc3ccccc3)C(=O)[C@@H]21 the results were EPAC1 ag val -23.8%.
For CN1[C@@H]2CC[C@H]1CC(OC(c1ccccc1)c1ccccc1)C2 (stereo partly specified) the results were EPAC1 ag val -17.0%&17.1%&2.6%.
`C[C@]12CCC(=O)C=C1CCC1C2C(O)C[C@]2(C)C1CC[C@]2(O)C(=O)COC(=O)CCC(=O)O` (stereo partly specified) gave EPAC1 ag val 12.2%.
For O=C1CC[C@@H]2C[C@@]3(C[C@@H]4CCN1[C@H]24)Nc1cc([N+](=O)[O-])ccc1NC3=NCc1ccccc1 the results were EPAC1 ag val -2.6%.
For NS(=O)(=O)c1cc(C2(O)NC(=O)c3ccccc32)ccc1Cl (stereo unspecified) the results were EPAC1 ag val 4.8%&2.1%.
`Cc1nc2cnc(N3CCOCC3)nc2n(Cc2cccs2)c1=O` gave EPAC1 ag val -65.2%[inhibitor].
Screening Cc1noc(C)c1C(=O)N1CCC2(CCCN(c3ccccn3)C2)CC1 returned EPAC1 ag val 4.3%.
`C[C@H]1[C@H]2CC[C@H]3C4CC=C5C[C@@H](N(C)C)CC[C@]5(C)C4CC[C@]23CN1C` (stereo partly specified) gave EPAC1 ag val 6.6%.
CC1=CC(=O)C2=C(C)CCC3C(C)C(=O)OC3C12 (stereo unspecified) was read as EPAC1 ag val 6.8%.
Screening CN(C)Cc1ccccc1-c1cc(N(C)C)ncn1 returned EPAC1 ag val -3.7%.
For COC(=O)[C@H]1[C@H]2C[C@@H]3c4[nH]c5cc(OC)ccc5c4CCN3C[C@H]2C[C@H](OC)[C@@H]1OC the results were EPAC1 ag val 3.2%.
For Cc1ccc2oc(-c3ccccc3)c(O)c(=O)c2c1 the results were EPAC1 ag val 3.1%.
For COc1ccccc1CNc1ncncc1-c1cccc(NS(C)(=O)=O)c1 the results were EPAC1 ag val -3.5%.
`O=C1O[C@H]2[C@H](O)[C@@H]1OC(O)[C@H]2O` (stereo partly specified) gave EPAC1 ag val inconclusive.
For C[C@@H]1CN(Cc2ccc3c(c2)CN(Cc2cccc4c2OCO4)CCO3)C[C@H](C)O1 the results were EPAC1 ag val -0.7%.
`Cc1ccc(C(=O)Nc2cccc(-c3nc(CNC(=O)C4(C)CC4)c(C)o3)c2)s1` gave EPAC1 ag val 14.5%.
`C[N+]1(CC(=O)c2ccc(Oc3ccccc3)cc2)CCOCC1` gave EPAC1 ag val -46.7%.
`COc1ccc(CN2CCOc3ccc(C(O)c4cccnc4)cc3C2)c(F)c1` (stereo unspecified) gave EPAC1 ag val -3.1%.
Screening O=c1nc2ccccc2c2n1C[C@H](CN1CCN(c3ccccc3)CC1)N2 returned EPAC1 ag val -16.8%.

Compound activity from PubChem.
